# Screens (PubChem)
# HIV Env fusion: inhibitors of HIV-1 Env-driven cell-cell fusion, primary screen, HeLa-JRFL effector, CEM21 target cells, luciferase | inhibition, % at 12.3 µM | hit rate 1.1% among 360,000;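 active = mean replicate inhibition score of at least 50 and every replicate individually at or above 50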;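 also: 0% = plate neutral controls and 100% = maraviroc near 300 nM; one replicate is shown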
# Yeast UUG start: modulators of yeast start codon fidelity, primary screen, whole organism, S. cerevisiae, single point, plate reader. AID 602363, 2012. activity score, % at 18.7 µM. hit rate 0.13% among 350,000. S. cerevisiae UUG-firefly luciferase reporter, luminescence/redox ratio;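 active = replicate mean at a twofold rise or more, about +100% in these data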;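 also: firefly luciferase made from a UUG start codon reports start codon fidelity; reporter light over untreated wells divided by growth signal over untreated wells; some hits fall short of that in this replicate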
# * = called active by the depositor; [ ] = dose if it differs, or a comment.
SMILES,HIV Env fusion,Yeast UUG start
COc1ccc(NC(=O)N[C@H]2CC[C@H](CCn3cc(-c4ccc(F)cc4)nn3)O[C@@H]2CO)cc1,14[16.7 µM],-17
CN1C(=O)c2cc(NC(=O)c3ccc(F)cc3)ccc2OC[C@@H]2O[C@@H](CC(=O)NCC3CCCCC3)CC[C@@H]21,19[16.7 µM],2
C[C@@H]1CCCCO[C@H](CN(C)S(=O)(=O)c2cccs2)[C@@H](C)CN([C@@H](C)CO)C(=O)c2cc(NC(=O)CCCN(C)C)ccc2O1,0[16.7 µM],12
O=C(CCN1CCCCC1)N[C@H]1CC[C@@H](CCNS(=O)(=O)c2ccc(Cl)cc2)O[C@@H]1CO,-52[16.7 µM],5
C[C@H]1CN([C@@H](C)CO)S(=O)(=O)c2ccc(C#Cc3ccccc3)cc2O[C@H]1CN(C)C,-14[16.7 µM],11
CC(=O)N(C)C[C@@H]1Oc2ncc(-c3cncnc3)cc2C(=O)N([C@@H](C)CO)C[C@@H]1C,-9[16.7 µM],-14
C[C@H]1CCCCO[C@H](CN(C)Cc2ccc(C(=O)O)cc2)[C@@H](C)CN([C@@H](C)CO)C(=O)c2cc(NS(=O)(=O)c3cccs3)ccc2O1,10[16.7 µM],22
C[C@H](CO)N1C[C@H](C)[C@H](CN(C)C(=O)c2ccc(F)cc2)Oc2ncc(C#C[C@@H](C)O)cc2C1=O,-5[16.7 µM],6
COc1ccc(-c2cnc3c(c2)C(=O)N([C@@H](C)CO)C[C@H](C)[C@H](CN(C)Cc2ccccc2)O3)cc1,-16[16.7 µM],-2
C[C@H]1CN([C@@H](C)CO)C(=O)c2cccc(NC(=O)Nc3ccc4c(c3)OCO4)c2O[C@@H]1CN(C)Cc1ccc2c(c1)OCO2,-18[16.7 µM],5
C[C@H]1CN([C@@H](C)CO)C(=O)c2cccc(NS(=O)(=O)c3ccc(Cl)cc3)c2O[C@@H]1CN(C)C(=O)Nc1ccc(F)cc1,0[16.7 µM],9
O=C(C[C@H]1C[C@H]2c3cc(NC(=O)c4ccc5c(c4)OCO5)ccc3O[C@H]2[C@@H](CO)O1)NCC1CC1,-4[16.7 µM],-5
CN(C)CC(=O)N[C@@H]1CC[C@@H](CC(=O)NCc2ccccc2F)O[C@@H]1CO,12[16.7 µM],-6
Cc1ccc(-c2cnc3c(c2)C(=O)N([C@H](C)CO)C[C@@H](C)[C@H](CN(C)C(=O)Cc2ccncc2)O3)cc1,14[16.7 µM],1
COc1cccc(NC(=O)N2C[C@@H](O)COC[C@@H]3O[C@@H](CC(=O)N(C)C)CC[C@H]32)c1,-6[16.7 µM],-7
C[C@H]1CN([C@@H](C)CO)C(=O)c2cc(-c3ccccc3)cnc2O[C@@H]1CN(C)Cc1ccccn1,-20[16.7 µM],-21
C[C@@H]1CN([C@H](C)CO)S(=O)(=O)c2ccc(-c3cccc(C#N)c3)cc2O[C@H]1CN(C)C(=O)c1ccc(F)cc1,-20[16.7 µM],6
C[C@@H]1CN([C@H](C)CO)C(=O)Cc2cc(NC(=O)Nc3ccc4c(c3)OCO4)ccc2O[C@@H]1CN(C)Cc1ccc(Oc2ccccc2)cc1,-8[16.7 µM],1
O=C(Nc1ccccc1F)N[C@H]1CC[C@H](CCNC(=O)C2CCC2)O[C@@H]1CO,9[16.7 µM],-9
COc1ccc(S(=O)(=O)N(C)C[C@@H]2Oc3ccc(NS(=O)(=O)c4cccs4)cc3C(=O)N([C@@H](C)CO)C[C@@H]2C)cc1,7[16.7 µM],-6
O=C(C[C@@H]1CC[C@H](NC(=O)CCN2CCCCC2)[C@@H](CO)O1)Nc1ccc(-c2ccccc2)cc1,-4[16.7 µM],5
CNC(=O)C[C@H]1CC[C@@H]2[C@H](COc3ccc(NC(=O)Nc4cc(C)cc(C)c4)cc3C(=O)N2C)O1,-13[16.7 µM],-8
C[C@H](CO)N1C[C@H](C)[C@@H](CN(C)C)Oc2ccc(NC(=O)C3CCCCC3)cc2CC1=O,-3[16.7 µM],7
C[C@@H]1CN([C@H](C)CO)C(=O)c2cccc(NC(=O)c3ccc(-c4nccs4)cc3)c2O[C@@H]1CN(C)S(=O)(=O)c1cccs1,14[16.7 µM],10
C[C@H](CO)N1C[C@H](C)[C@@H](CN(C)Cc2ccc(C(F)(F)F)cc2)OCCCC[C@H](C)Oc2ccc(NC(=O)c3ccncc3)cc2C1=O,6[16.7 µM],31
C[C@H](CO)N1C[C@H](C)[C@H](CN(C)S(C)(=O)=O)Oc2ccc(NC(=O)Cn3cnnn3)cc2C1=O,-5[16.7 µM],-6
C[C@H]1CN([C@@H](C)CO)C(=O)c2cc(/C=C/c3ccccc3)cnc2O[C@H]1CN(C)C(=O)c1ccncc1,4[16.7 µM],10
C[C@H](CO)N1C[C@H](C)[C@@H](CN(C)C(=O)C2CC2)Oc2cc(-c3ccc(C#N)cc3)ccc2S1(=O)=O,-27[16.7 µM],17
C/C=C/c1cnc2c(c1)C(=O)N([C@H](C)CO)C[C@@H](C)[C@@H](CN(C)C(=O)Nc1ccc(OC)cc1)O2,-7[16.7 µM],-1
C[C@@H]1CN([C@@H](C)CO)C(=O)Cc2cc(NC(=O)Nc3ccc4c(c3)OCO4)ccc2O[C@H]1CN(C)CC1CCCCC1,17[16.7 µM],-2
N#C[C@@H]1[C@@H](c2ccc(-c3ccccc3)cc2)[C@@H](CO)N1C(=O)Cc1ccccc1,3[16.7 µM],-9
C[C@@H]1CN([C@H](C)CO)C(=O)c2cc(N(C)C)ccc2O[C@@H](C)CCCCO[C@@H]1CN(C)C(=O)Nc1ccc(F)cc1,5[16.7 µM],8
C[C@@H]1CN([C@@H](C)CO)C(=O)c2cc(NC(=O)NC3CCCCC3)ccc2O[C@@H](C)CCCCO[C@H]1CN(C)Cc1ccccc1,-21[16.7 µM],24
CNC[C@H]1OCCCC[C@@H](C)Oc2ccc(NC(=O)c3ccccc3)cc2C(=O)N([C@H](C)CO)C[C@@H]1C,-14[16.7 µM],0
COc1ccc(S(=O)(=O)N[C@H]2CC[C@H](CC(=O)NCc3ccccc3F)O[C@@H]2CO)cc1,-38[16.7 µM],-17
CCCC#Cc1ccc([C@@H]2[C@@H](C#N)N(C(=O)C3CCCCC3)[C@H]2CO)cc1,5[16.7 µM],0

# Overlap with the part before: four compounds; new compounds follow.
SMILES,HIV Env fusion,Yeast UUG start
C[C@@H]1CN([C@@H](C)CO)C(=O)c2cc(NC(=O)NC3CCCCC3)ccc2O[C@@H](C)CCCCO[C@H]1CN(C)Cc1ccccc1,-21[16.7 µM],24
CNC[C@H]1OCCCC[C@@H](C)Oc2ccc(NC(=O)c3ccccc3)cc2C(=O)N([C@H](C)CO)C[C@@H]1C,-14[16.7 µM],0
COc1ccc(S(=O)(=O)N[C@H]2CC[C@H](CC(=O)NCc3ccccc3F)O[C@@H]2CO)cc1,-38[16.7 µM],-17
CCCC#Cc1ccc([C@@H]2[C@@H](C#N)N(C(=O)C3CCCCC3)[C@H]2CO)cc1,5[16.7 µM],0
C/C=C/c1ccc2c(c1)O[C@@H](CN(C)C(=O)Nc1ccc(C(F)(F)F)cc1)[C@H](C)CN([C@@H](C)CO)S2(=O)=O,31[16.7 µM],-12
Cc1ccc(S(=O)(=O)Nc2ccc3c(c2)CC(=O)N([C@@H](C)CO)C[C@H](C)[C@@H](CN(C)S(=O)(=O)c2ccc(C)cc2)O3)cc1,2[16.7 µM],-5
C[C@H](NC(=O)C[C@H]1C=C[C@H](NS(=O)(=O)c2cccc(F)c2)[C@@H](CO)O1)c1ccccc1,12[16.7 µM],-12
C[C@H](CO)N1C[C@H](C)[C@@H](CN(C)S(=O)(=O)c2cn(C)cn2)OCCCC[C@H](C)Oc2ccc(NC(=O)c3ccncc3)cc2C1=O,7[16.7 µM],-8
C[C@@H]1CN([C@@H](C)CO)C(=O)c2cccc(NC(=O)Nc3ccc4c(c3)OCO4)c2O[C@@H]1CN(C)Cc1ccncc1,-14[16.7 µM],-5
C[C@@H](NC(=O)C[C@H]1CC[C@@H](NC(=O)CN2CCOCC2)[C@@H](CO)O1)c1ccccc1,2[16.7 µM],-16
COC(=O)C[C@@H]1CC[C@@H]2[C@@H](COc3ccc(NC(=O)c4ccc(OC)cc4)cc3C(=O)N2C)O1,1[16.7 µM],31
COc1ccc(NC(=O)Nc2ccc3c(c2)C(=O)N([C@@H](C)CO)C[C@@H](C)[C@H](CN(C)CC2CCCCC2)O3)cc1,11[16.7 µM],0
C[C@@H]1CN([C@H](C)CO)C(=O)Cc2cc(NS(=O)(=O)c3ccc(F)cc3)ccc2O[C@@H]1CN(C)Cc1ccc(C(=O)O)cc1,-5[16.7 µM],-8
C[C@@H]1CCCCO[C@@H](CN(C)Cc2ccc(C(F)(F)F)cc2)[C@H](C)CN([C@@H](C)CO)C(=O)c2cc(NC(=O)Nc3ccc(F)cc3)ccc2O1,42[16.7 µM],-6
C[C@H]1CN([C@@H](C)CO)S(=O)(=O)c2ccc(Br)cc2O[C@@H]1CN(C)S(=O)(=O)c1ccc(F)cc1,10[16.7 µM],6
CNC(=O)C[C@@H]1CC[C@@H]2[C@H](COc3ccc(NC(=O)NCc4ccccc4)cc3C(=O)N2C)O1,-14[16.7 µM],17
CNC(=O)C[C@H]1CC[C@H]2[C@H](COc3ccc(NC(=O)C(C)C)cc3C(=O)N2C)O1,-5[16.7 µM],-11
C[C@@H](NC(=O)C[C@@H]1CC[C@@H](NC(=O)C2CCOCC2)[C@@H](CO)O1)c1ccccc1,-28[16.7 µM],1
Cc1ccc(S(=O)(=O)Nc2ccc3c(c2)C(=O)N(C)[C@@H]2CC[C@@H](CC(=O)O)O[C@@H]2CO3)cc1,3[16.7 µM],4
Cc1ccc(S(=O)(=O)N(C)C[C@@H]2OCCCC[C@@H](C)Oc3ccc(NS(=O)(=O)c4ccc(F)cc4)cc3C(=O)N([C@@H](C)CO)C[C@H]2C)cc1,-30[16.7 µM],-8
C[C@H](CO)N1C[C@H](C)[C@@H](CN(C)Cc2ccc(Oc3ccccc3)cc2)Oc2ncc(-c3ccncc3)cc2C1=O,-22[16.7 µM],-4
COc1ccc(NC(=O)N(C)C[C@@H]2Oc3ccc(NC(=O)Nc4ccc(C(F)(F)F)cc4)cc3CC(=O)N([C@H](C)CO)C[C@H]2C)cc1,21[16.7 µM],-3
CCNC(=O)C[C@@H]1CC[C@H]2[C@@H](COC[C@H](O)CN2Cc2ccncc2)O1,-25[16.7 µM],-14
O=C(C[C@H]1C=C[C@H](NC(=O)c2cccc(F)c2)[C@@H](CO)O1)NCCN1CCCC1,4[16.7 µM],13
C[C@@H]1CN([C@@H](C)CO)C(=O)Cc2cc(NC(=O)CCN3CCOCC3)ccc2O[C@@H]1CN(C)S(C)(=O)=O,4[16.7 µM],33
CNC(=O)C[C@@H]1CC[C@@H]2[C@@H](COc3ccc(NC(=O)Nc4ccc(F)c(F)c4)cc3C(=O)N2C)O1,-3[16.7 µM],12
C[C@@H]1CCCCO[C@@H](CN(C)CC2CCCCC2)[C@@H](C)CN([C@H](C)CO)C(=O)c2cc(NS(=O)(=O)c3ccccc3)ccc2O1,-53[16.7 µM],21
CCC(=O)N(C)C[C@@H]1Oc2ncc(C3=CCCC3)cc2C(=O)N([C@@H](C)CO)C[C@H]1C,-6[16.7 µM],0

# Grouped by structure: the entries above containing a COOH group (three)
SMILES,HIV Env fusion,Yeast UUG start
C[C@H]1CCCCO[C@H](CN(C)Cc2ccc(C(=O)O)cc2)[C@@H](C)CN([C@@H](C)CO)C(=O)c2cc(NS(=O)(=O)c3cccs3)ccc2O1,10[16.7 µM],22
C[C@@H]1CN([C@H](C)CO)C(=O)Cc2cc(NS(=O)(=O)c3ccc(F)cc3)ccc2O[C@@H]1CN(C)Cc1ccc(C(=O)O)cc1,-5[16.7 µM],-8
Cc1ccc(S(=O)(=O)Nc2ccc3c(c2)C(=O)N(C)[C@@H]2CC[C@@H](CC(=O)O)O[C@@H]2CO3)cc1,3[16.7 µM],4

# (further entries)
SMILES,HIV Env fusion,Yeast UUG start
Cc1noc(C)c1S(=O)(=O)N(C)C[C@@H]1Oc2ccc(NC(=O)Nc3ccc(C(F)(F)F)cc3)cc2CC(=O)N([C@H](C)CO)C[C@H]1C,9[16.7 µM],-12
O=C(C[C@@H]1C=C[C@@H](NC(=O)Nc2ccc(F)cc2)[C@@H](CO)O1)NCCN1CCCC1,3[16.7 µM],-10
COc1ccc(NC(=O)Nc2ccc3c(c2)C(=O)N([C@@H](C)CO)C[C@@H](C)[C@H](CN(C)C(=O)NC2CCCCC2)OCCCC[C@@H](C)O3)cc1,20[16.7 µM],5
C[C@H](CO)N1C[C@H](C)[C@H](CN(C)CC2CCCCC2)OCCCC[C@H](C)Oc2ccc(NS(=O)(=O)c3cn(C)cn3)cc2C1=O,-19[16.7 µM],-12
COc1ccc(C#Cc2ccc3c(c2)O[C@H](CN(C)C(=O)Nc2cccc(OC)c2)[C@@H](C)CN([C@H](C)CO)S3(=O)=O)cc1,6[16.7 µM],7
C[C@@H]1CN([C@H](C)CO)S(=O)(=O)c2ccc(C#Cc3ccccn3)cc2O[C@@H]1CN(C)CC1CC1,-11[16.7 µM],-7
C[C@H](CO)N1C[C@H](C)[C@H](CN(C)C(=O)CC2CC2)Oc2cc(C#CCC3CCCC3)ccc2S1(=O)=O,21[16.7 µM],-12
O=C(C[C@@H]1CC[C@@H]2[C@H](COC[C@H](O)CN2Cc2cc(F)ccc2F)O1)N1CCc2ccccc2C1,-25[16.7 µM],-11
C[C@H](CO)N1C[C@H](C)[C@H](CN(C)C(=O)Cc2ccccn2)Oc2cc(-c3cccc(C(=O)N(C)C)c3)ccc2S1(=O)=O,-17[16.7 µM],-6
C[C@@H]1CN([C@@H](C)CO)C(=O)c2cccc(N(C)C)c2O[C@H]1CN(C)Cc1ccncc1,4[16.7 µM],4

# Not all compounds are listed; the hit share may differ from the screen's.
